Screens from PubChem.
CBX7 AlphaScr – blocks human CBX7 binding to H3K27me3 peptide. O95931. AlphaScreen His6-CBX7 / biotin-H3K27me3 peptide binding; stronger effect = lower value. normalised signal (fraction of DMSO) (test concentration not listed). 66,000 compounds, 1.1% hits. AID 1224903; in the data active = normalised signal below about 0.5;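 also: 100 nL library stock added to about 20 µL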
Target sequence (O95931 whole entry, looked up): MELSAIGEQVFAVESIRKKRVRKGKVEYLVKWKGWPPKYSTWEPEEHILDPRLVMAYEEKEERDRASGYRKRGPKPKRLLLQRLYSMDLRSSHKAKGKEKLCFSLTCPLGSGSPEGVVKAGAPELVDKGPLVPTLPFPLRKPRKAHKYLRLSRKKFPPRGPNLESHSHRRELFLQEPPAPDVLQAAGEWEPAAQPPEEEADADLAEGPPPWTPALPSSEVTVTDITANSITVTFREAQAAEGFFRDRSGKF
CBX7 AlphaScr z-score – recorded beside CBX7 AlphaScr, whose call it bears; z-score; measured here: z-score of CBX7 signal; some inactives read as strong as hits; reference of the scale not given here;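 same signal on another scale; lower means less binding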
Numbers without * were called inactive; & = joins results of further samples. Only part of the results is shown. The share of hits here may be higher or lower than overall.

Sequence of screens – CBX7 AlphaScr	CBX7 AlphaScr z-score
> Cc1ccc(-c2nc3ncccc3o2)cc1NC(=O)COc1cccc(C)c1C
  0.935	-0.664
> CCN1CCN(C(=O)c2sc3nc(-c4ccccc4)cn3c2C)CC1
  1.02	0.714
> Clc1ccc(Cc2nnc(-c3ccccc3Cl)o2)cc1
  1.02	0.433
> CCCc1cc(C(=O)Nc2cccc(Cl)c2)no1
  1.11	3.59
> Cc1ccc(-n2nc3c(c2NC(=O)c2ccccc2Cl)CSC3)cc1
  0.955	-1.11
> COc1ccc(OCc2nc(C#N)c(N3CCCC3)o2)cc1
  0.859	-6.15
> CCOc1ccc(CCNC(=O)c2ccc3nc(N4CCOCC4)sc3c2)cc1OCC
  1.02	0.715
> O=C(O)c1cc(S(=O)(=O)N2CCCCC2c2cccnc2)ccc1F (stereo not drawn)
  1.06	1.56
> CC(=O)N1CCc2cc(S(=O)(=O)NC(Cc3ccccc3)C(=O)Nc3cc(C)ccc3C)ccc21 (stereo not drawn)
  0.865	-2.5
> CCOc1ccc(S(=O)(=O)c2cn(Cc3ccccc3)c3ccc(OC)cc3c2=O)cc1
  0.929	-2.65
> CC(C)(C)c1ccc2c(c1)N(CC(=O)NCCCN1CCCCC1)C(=O)CO2
  1.18	3.19
> COc1ccc(CCn2c(=O)[nH]c3ncccc3c2=O)cc1OC
  0.965	-0.939
> COc1ccccc1Nc1nc2nonc2nc1N1CCC(C)CC1
  1.13	1.53
> Cc1ccc2cc(CCNC(=O)COc3ccccc3)c(=O)[nH]c2c1C
  1.08	0.541
> CC(=O)Nc1ccc(S(=O)(=O)N2CCN(c3nc(NC4CCCC4)c4ccccc4n3)CC2)cc1
  0.865	-0.152
> Cc1ccc(/C=C/c2nc3ccccc3n2S(=O)(=O)c2cc(Cl)ccc2Cl)cc1
  0.978	-0.623
> CCOC(CNC(=O)CN1C(=O)CCSc2ccccc21)OCC
  0.799	-2.59
> Cc1ccc(C(=O)O)c(C(=O)Nc2nc3c(C)cccc3s2)c1
  1.02	0.522
> N#Cc1nc(COc2ccccc2Cl)oc1NCCc1ccccc1
  0.647	-2.2
> CCCc1nc2ccccc2c(NC(=O)CN2CCCCC2)c1CC
  0.94	-0.587
> Cc1nc2c(C(=O)N3CCCC3)cnn2c(C)c1Cc1ccc(Cl)cc1
  0.936	-1.77
> Cc1ccnc(N2C(=O)c3ccccc3C2Nc2ccccc2Br)c1 (stereo not drawn)
  1.01	0.447
> O=C1CCCC(C(=O)NC2CCCCCC2)(c2ccc(F)cc2)N1Cc1ccccc1Cl (stereo not drawn)
  0.93	-1.51
> Cn1c(=O)n(CC(=O)Nc2nn(-c3ccccc3)nc2C(N)=O)c2ccccc21
  1.05	1.43
> CCC(C(=O)NCc1ccc2c(c1)OCO2)N1C(=O)COc2ccc(C(C)(C)C)cc21 (stereo not drawn)
  1.01	0.256
> O=C(Nc1ccc2snnc2c1)Nc1ccccc1Cl
  1.01	0.594
> CCCCOc1ccc(C(=O)Nc2ccc3sc(C)nc3c2)cc1
  1.19	1.41
> CCCCN(CC)S(=O)(=O)c1ccc(C(=O)Nc2nnc(-c3cccs3)o2)cc1
  0.902	-0.953
> CCc1ccc(C(=O)CC2(O)C(=O)Nc3ccccc32)cc1 (stereo not drawn)
  1.04	0.197
> COc1ccc(N2C(=O)CC(NCCCN3CCOCC3)C2=O)cc1 (stereo not drawn)
  1.01	0.498

(next part)
Sequence of screens – CBX7 AlphaScr	CBX7 AlphaScr z-score
> CCOC(=O)c1cc(-c2ccccc2)n(CCC(=O)Nc2ccccc2OCC)c1C
  0.837	-2.05
> Cc1ccc(NC(=O)C2CCCN(S(=O)(=O)c3cccs3)C2)cc1 (stereo not drawn)
  0.99	-0.013
> O=C1C2=C(Nc3ccccc3SC2c2cccs2)c2ccccc21 (stereo not drawn)
  0.395*	-9.38*
> CCOC(=O)c1c(CN2CCN(Cc3ccccc3)CC2)n(C)c2cc(Br)c(OC)cc12
  0.84	-7.2
> COc1ccccc1C(=O)Nc1c2c(nn1-c1cccc(C)c1C)CSC2
  0.965	-0.609
> NC(=O)C1(N2CCCCC2)CCN(c2c(-c3ccccc3)c3cc(Cl)ccc3[nH]c2=O)CC1
  1.02	0.581
> Cc1cc(C)n(-c2nc3ccccc3nc2Nc2ccccc2F)n1
  1.84	30
> Cc1cccc(N2CCN(C(=O)CN3C(=O)CC(C)(C)Sc4ccccc43)CC2C)c1 (stereo not drawn)
  0.961	-1.13
> O=C(CSc1nc2ccccc2o1)Nc1ccc(Cl)cn1
  1.13	1.8
> Cc1ccc(S(=O)(=O)c2nc(-c3cccc(C)c3)oc2N2CCOCC2)cc1
  1.05&1.1	0.632&1.17
> COc1ccc(CN2CCN(Cc3cccc(OC)c3OC)CC2)cc1Br
  0.849	-1.81
> Cc1cccc(NS(=O)(=O)c2cc(Br)cc3c2N(C(=O)C2CC2)CC3)c1
  1.02	0.974
> CCC1=Nc2cc(C(=O)NCC(OC)OC)ccc2Sc2ccc(C)cc21
  0.732	-5.04
> CC(C)OCCCNC(=O)CN1CCN(Cc2ccc(Cl)cc2)C1=O
  1	0.0528
> CCC(C)NC(=O)CCC(=O)Nc1ccc2nc(N3CCCCC3)cc(C)c2c1 (stereo not drawn)
  1.09	2.18
> CCOc1ccc(-c2cn(-c3ccc(OC)cc3)c(SCC(=O)Nc3ccccc3Cl)n2)cc1
  0.807	-6.34
> CCC1Oc2ccccc2N(CC(=O)NCc2cc(Br)ccc2OC)C1=O (stereo not drawn)
  1.02	0.834
> COc1cccc(-c2cc(C(=O)Nc3ccc(F)cc3F)no2)c1
  0.979	-0.456
> COc1ccc(-c2nc(CS(=O)(=O)CC(=O)NCc3ccccc3)c(C)o2)cc1
  1.01	0.0272
> CCOc1ccc(-n2c(C)nc3cc(C(=O)NC4CCCC4)ccc32)cc1
  0.999	-0.0159
> Cc1ccccc1CNC(=O)Cn1nc(C)c2ccccc21
  0.99	-0.445
> CCOc1ccc(-c2cc(C(=O)NCCN(C)C)c3ccccc3n2)cc1
  1.16	4.29
> c1cc2c(cc1-n1nnnc1SCc1nn[nH]n1)OCO2
  1.01	0.0269
> CCOC(=O)c1cnc2ccc(OC)cc2c1Nc1ccc(N2CCOCC2)cc1
  0.642	-4.53
> O=c1[nH]c(CN2CCCC2)nc2c1C1(CCCC1)Cc1ccccc1-2
  0.979	-0.823
> Cc1ccnc(NC(=O)c2ccccc2C(=O)O)c1
  0.989	-0.21
> O=C(NCCCN1CCCC1=O)c1ccc2c(c1)NC(=O)c1ccccc1S2
  1.2	1.48
> CC(C)NC(=O)c1cn(C2CCCCC2)c(=O)c2c1c1ccccc1n2C
  0.931	-1.71
> Cc1nc2ccccn2c1-c1csc(Nc2ncccn2)n1
  1.15	0.182
> COc1ccc(-c2noc(-c3ccc(C)c(C)c3)n2)cc1OC
  1.09	2.51

Entries above that have a thiophene ring, fused or not:
Sequence of screens – CBX7 AlphaScr	CBX7 AlphaScr z-score
> CCCCN(CC)S(=O)(=O)c1ccc(C(=O)Nc2nnc(-c3cccs3)o2)cc1
  0.902	-0.953
> Cc1ccc(NC(=O)C2CCCN(S(=O)(=O)c3cccs3)C2)cc1 (stereo not drawn)
  0.99	-0.013
> O=C1C2=C(Nc3ccccc3SC2c2cccs2)c2ccccc21 (stereo not drawn)
  0.395*	-9.38*

(more compounds)
Sequence of screens – CBX7 AlphaScr	CBX7 AlphaScr z-score
> C=C(C)Cn1c(CCCNC(=O)c2cccs2)nc2ccccc21
  1.1	1.82
> Cc1c(C(=O)NCC2CCCO2)sc2ncn(CC(=O)Nc3cccc(C(F)(F)F)c3)c(=O)c12 (stereo not drawn)
  1.09	2.79
> CCCCn1c(CN2CCOCC2)nc2c1c(=O)[nH]c(=O)n2C
  1.04	1.48
> O=C(CCn1nc(-c2ccc(Cl)cc2)c2ccccc2c1=O)NCc1cccnc1
  1.01	0.342
> Cc1nc2c(-c3ccc(F)cc3)c(C)nn2c(C)c1CCC(=O)NCCCN1CCCC1
  1.01	0.155
> O=C(NCCCN1CCC(N2CCCCC2)CC1)c1ccc2c(c1)NC(=O)c1ccccc1S2
  1.02	0.583
> COc1ccc(CNC(=O)CCNS(=O)(=O)c2ccc(Br)cc2)cc1
  1.11	0.677
> NC(=O)C1CCN(C(=O)c2ccc(C#CC3(O)CCCCC3)cc2)CC1
  0.974	-0.732
> COc1ccc(-n2nc(C(=O)NCC(=O)Nc3ccc(C(C)C)cc3)c3ccccc3c2=O)cc1
  0.967	-0.686
> Cc1ccc(CNC(=O)C2CCN(c3cc(C)nc4c(-c5ccc(Cl)cc5)c(C)nn34)CC2)cc1
  1.04	0.11
> Cc1ccccc1NS(=O)(=O)c1ccc2[nH]cc(C(=O)N3CCCCCC3)c(=O)c2c1
  0.858	-0.934
> COc1ccc(OC)c(CN2CCN(Cc3ccc(OC)c(OC)c3OC)CC2)c1
  0.981	-0.481
> COc1ccccc1CNC(=O)CNC(=O)Cn1ccc2ccccc2c1=O
  0.987	-0.13
> COc1ccc(-n2nnc3c(=O)n(CC(=O)Nc4cc(C)on4)cnc32)cc1
  1.06	1.14
> CC(C)(C)C(=O)Nc1ccc(S(=O)(=O)Nc2cnc3ccccc3n2)cc1
  1.01	0.00782
> Cc1ccc(C2CC(c3ccc(F)c(Br)c3)n3ncnc3N2)cc1 (stereo not drawn)
  1.06	2.08
> COC(=O)c1ccc(N2C(=O)CC(N3CCN(c4ccc(OC)cc4)CC3)C2=O)cc1 (stereo not drawn)
  1.07	1.94
> c1cc2c(cc1C1CCCCC1)c1c3c(cncn32)CCC1
  1.39	3.82
> Fc1ccc(Cn2c(-c3ccc(F)cc3)nc3ccccc32)cc1
  1.13	1.24
> O=C(Cn1ncc2c1-c1ccccc1OC2)NC1CCCCCC1
  1.05	0.672
> Cc1noc(C(=O)Nc2sc3c(c2C(N)=O)CCCC3)c1Cl
  1.02	0.832
> CC(=O)N[C@H]1[C@H](OCc2ccccc2F)O[C@H](COC(C)=O)[C@@H](OC(C)=O)[C@@H]1OC(C)=O
  1.04	1.31
> CC(=O)N1CCc2cc(S(=O)(=O)NC(CC(C)C)C(=O)Nc3cc(C)ccn3)ccc21 (stereo not drawn)
  1.05	0.964
> CC(C)NC(=O)CC1Oc2ccccc2NC1=O (stereo not drawn)
  1.05	1.79
> CC(C)Cc1nnc(NC(=O)CSc2ncn[nH]2)s1
  0.977	-0.42
> CCOc1ccc(C(=O)Nc2cccc(-c3nc4ccccc4o3)c2C)cc1Br
  1.05	0.826
> O=C(CCNS(=O)(=O)c1ccc2c(c1)CCC(=O)N2)Nc1ccc(Br)cc1
  1.1	2.02
> C=CCNc1nc(-c2ccc(C)cc2)nc2ccccc12
  1.13	2.91
> Cn1c(SCC(=O)Nc2ccccc2F)nnc1-c1c[nH]c2ccccc12
  0.941	-0.567
> Cc1cc(C)c(CC2(O)CC(C)N(C)CC2C)cc1C (stereo not drawn)
  1.08	1.31

Among those listed so far, 4 have two or more sulfur atoms.
Sequence of screens – CBX7 AlphaScr	CBX7 AlphaScr z-score
> CCCCN(CC)S(=O)(=O)c1ccc(C(=O)Nc2nnc(-c3cccs3)o2)cc1
  0.902	-0.953
> Cc1ccc(NC(=O)C2CCCN(S(=O)(=O)c3cccs3)C2)cc1 (stereo not drawn)
  0.99	-0.013
> O=C1C2=C(Nc3ccccc3SC2c2cccs2)c2ccccc21 (stereo not drawn)
  0.395*	-9.38*
> CC(C)Cc1nnc(NC(=O)CSc2ncn[nH]2)s1
  0.977	-0.42

Next part:
Sequence of screens – CBX7 AlphaScr	CBX7 AlphaScr z-score
> O=C(O)c1ccc2c(c1)N(Cc1cccc(F)c1)C(=O)CS2
  1	0.079
> O=C(O)C(Cc1ccccc1)N1C(=O)C2C3C=CC(C3)C2C1=O (stereo not drawn)
  0.913	-1.04
> CCOC(=O)c1ccc(NC(=O)CC2C(=O)N(c3ccccc3)C(=O)N2CCc2cccs2)cc1 (stereo not drawn)
  0.946	-2.2
> CCn1cc(C(=O)N(C)c2ccc(OC)cc2)c2cc(OC)c(OC)cc2c1=O
  1.1	0.869
> COc1ccc(-c2nc(Nc3cc(F)ccc3C)c3ccccc3n2)cc1OC
  1.37	9.87
> O=C(Nc1nc2ccccc2s1)c1ccccc1Oc1ccccc1
  1.06	2.52
> Cc1ccc(N2C(=O)c3ccccc3C2Nc2cccnc2)nc1 (stereo not drawn)
  0.974	-0.885
> CC1(C)CC(=O)c2sc(NS(=O)(=O)c3ccc(F)cc3)nc2C1
  0.978	-0.417
> Cc1cc(N2CC(C)CC(C)C2)nc2ccc(NC(=O)CCC(=O)N3CC(C)CC(C)C3)cc12 (stereo not drawn)
  1.05	1.16
> COc1ccccc1Nc1cc(C(=O)NC(C)c2ccccc2)c2ccccc2n1 (stereo not drawn)
  1.13	2.1
> CCOc1ccc(NC(=O)CC2C(=O)N(c3ccccc3)C(=O)N2Cc2ccc(F)cc2)cc1 (stereo not drawn)
  0.973	-1.09
> Cc1c(-c2ccccc2)c(CN2CCN(C)CC2)n2ccccc12
  0.819	-7.02
> COc1ccc(-c2nc(CSCC(=O)NCc3ccc(F)cc3)c(C)o2)cc1OC
  1.04	0.856
> CCCCN(CC)C(=O)c1c[nH]c2ccc(S(=O)(=O)N(C)c3cccc(C)c3)cc2c1=O
  0.786	-2.95
> COc1ccc2c(c1)Cc1sc(NC(=O)c3ccccc3C)nc1-2
  1	0.0457
> Cc1cc(Cl)ccc1OCc1nc(-c2ccc(Cl)cc2)no1
  1.22	0.265
> CCOc1cc2c(cc1OCC)C1C(C(=O)Nc3cccnc3)c3ccccc3C(=O)N1CC2 (stereo not drawn)
  1.12	0.994
> Clc1ccc(-c2nnc(Sc3nc4ccccc4o3)c3ccccc23)cc1
  0.939&0.907	-3.14&-3.2
> O=C1CCCC2=C1C(c1ccc(O)cc1)Nc1ccccc1N2 (stereo not drawn)
  0.996	-0.184
> COc1ccc(OC)c(NC(=O)c2c(NCc3ccccn3)sc3c2CCCC3)c1
  0.618	-19.8
> O=C(O)CC1(Cc2nc(-c3ccc(Cl)cc3)no2)CCCC1
  1.04	0.675
